High-throughput results as filed in PubChem.
VACV mCherry inh: vaccinia inhibition (mCherry reporter). Vaccinia virus mCherry reporter infection, fluorescence; about a quarter of the inactives have no number. Potency, µM (highest dose often 36.5 µM), for the others: top-dose activity change, negative = inhibition, hits mostly inhibitors. 310,000 compounds, 0.63% hits. AID 720579; active = well fitted inhibition curve with a large enough effect; inconclusive = small, poorly fitted or top-dose-only effect; inactive = no such curve, though single readings can be large or run the other way; tested in A549 cells; further: nearly all actives have a fitted effect of over 35% in size; inactives centre near -10
Vaccinia Venus: vaccinia inhibition (Venus reporter) | Potency, µM (series often up to 36.5 µM), for the others: at the highest dose activity change, negative = inhibition, usual class: inhibitors | 330,000 compounds, 0.46% hits | Vaccinia virus Venus reporter expression, fluorescence; active means well fitted inhibition curve with a large enough effect; inconclusive means small, poorly fitted or top-dose-only effect; inactive means no such curve, though single readings can be large or run the other way; tested in A549 cells; further: nearly all actives have a fitted effect of over 30% in size; inactives centre near -10
The depositor's hits bear a star; i = inactive; ? = inconclusive; . = not tested or not shown; & = joins results of further samples; [ ] = dose if it differs, or a comment. On the % scale 0 is the no-effect control and ±100 the full control effect; potency means the concentration at half of the fitted maximal effect.

The line under a structure holds: VACV mCherry inh	Vaccinia Venus
COc1ccc2c(c1)CCc1c(C(=O)NCc3ccc(F)cc3)noc1-2
    3%	-1%
COCCNC(=O)c1cccc(Nc2nc3ccccc3n3nnnc23)c1
    -19%	-17%
COc1ccccc1CNC(=O)COC(=O)Cn1cnc2c1c(=O)n(C)c(=O)n2C
    i	-11%
Cc1ccc(-c2nn(-c3cccc([N+](=O)[O-])c3)c3c2cnc2ccc(F)cc23)cc1
    ?	-3%
CCCCCCCCSC1=CC(=O)C(OC)=C(OC)C1=O
    -7%	-8%
CCc1ccc(NC(=O)C2CCN(S(=O)(=O)c3c(C)noc3C)CC2)cc1
    -11%	-5%
CCN(Cc1ccccc1)S(=O)(=O)c1ccc(OC)c2ncccc12
    -8%	-6%
CCOc1ccccc1NC(=O)N(Cc1ccc(C)o1)C1CCN(C(C)=O)CC1
    -12%	-13%
CCOC(=O)[C@@H]1[C@H]2COc3ccc(Br)cc3[C@H]2N2C(=O)N(c3ccc(C)cc3)C(=O)[C@@]12C
    i	-15%
Cc1cc(C)c(C(=O)CN2CCOCC2)c(C)c1
    .	11%
Cc1c(O)c(CN(C)C)cc2c1oc(=O)c1ccccc12
    -17%	-8%
O=C(Cn1cc2c(n1)CCCC2)NCc1cccc(Cl)c1
    -8%	-4%
COc1cccc(NC(=O)CNC(=O)c2ccc(F)cc2)c1
    -12%	-13%
CC(C)CCn1c(SCc2ccc(F)cc2Cl)nc2ccsc2c1=O
    -1%	-5%
O=C(c1cccc(Cl)c1)N1CCN(Cc2c[nH]c3ccccc23)CC1
    -24%	-11%
CCOCc1nnc(NC(=O)C2CCN(C(=O)C3CC(=O)N(c4ccc(C)cc4)C3)CC2)s1 (stereo not drawn)
    4%	7%
CCOC(=O)C1CCN(C(=O)c2ccc3c(=O)n4nc(Nc5ccccc5CC)sc4nc3c2)CC1
    -11%	-27%
CCOC(=O)C1(CCc2ccccc2)CCN(C(=O)CCn2cncn2)CC1
    -8%	5%
CCN1CCN(c2ccc(NC(=O)c3ccc4c(c3)OCO4)cc2)CC1
    -19%	-4%
O=C(CSc1nc2ccccc2c(=O)n1CC1CCCCC1)N1CCOCC1
    .	?

4 of the compounds above, as labelled records.
CCCCCCCCSC1=CC(=O)C(OC)=C(OC)C1=O
  VACV mCherry inh: -7%	Vaccinia Venus: -8%
COc1cccc(NC(=O)CNC(=O)c2ccc(F)cc2)c1
  VACV mCherry inh: -12%	Vaccinia Venus: -13%
CCOC(=O)C1CCN(C(=O)c2ccc3c(=O)n4nc(Nc5ccccc5CC)sc4nc3c2)CC1
  VACV mCherry inh: -11%	Vaccinia Venus: -27%
CCOC(=O)[C@@H]1[C@H]2COc3ccc(Br)cc3[C@H]2N2C(=O)N(c3ccc(C)cc3)C(=O)[C@@]12C
  VACV mCherry inh: i	Vaccinia Venus: -15%

(continued)
The line under a structure holds: VACV mCherry inh	Vaccinia Venus
O=C(COc1ccccc1)Nc1nnc(SCc2cc(=O)c3ccccc3[nH]2)s1
    -4%	-2%
CCCC(=O)Nc1ccc(C(=O)O)cc1NC(=O)CCC
    -9%	3%
CSc1nc(N)nc2c1ncn2CC(=O)N[C@H](CO)Cc1c[nH]c2ccccc12
    i	-6%
CCNc1nc(NCC)n2c(SCC(=O)Nc3ccccc3OC(F)F)nnc2n1
    i	-9%
O=C(Nc1nccs1)C1CCN(S(=O)(=O)c2ccc(Cl)c(C(F)(F)F)c2)CC1
    -15%[1.46 µM]	-25%
CCN(Cc1ccccc1)S(=O)(=O)c1ccc(C(=O)N(CCCN(C)C)c2nc3cc(OC)ccc3s2)cc1
    i	?
COc1cc(NC(=O)CSc2nccn2C)cc(OC)c1OC
    -12%	-2%
CCCc1cc(N2CCN(c3ccccc3)CC2)n2cnnc2n1
    -28%	-25%
OCC[C@@H]1C[C@@H](O)[C@H](O)[C@@]2(CCCO2)O1
    -13%	-8%
CC(C(=O)Nc1ccccc1C(F)(F)F)n1nc(-c2ccccc2)c2c(c1=O)CCCC2 (stereo not drawn)
    -11%	-13%
Cc1cccc(NC(=O)c2cc3ccccc3nc2C)c1
    -10%	1%
Cn1c(SCC(=O)Nc2ccccc2[N+](=O)[O-])nnc1C(F)(F)F
    i	-12%
COCCOC(=O)C1=C(C)NC(=O)N(C(C)=O)C1c1ccc(Cl)cc1 (stereo not drawn)
    0%	-3%
COC(=O)c1ccc(C(=O)OC)c(NC(=O)c2c(-c3ccccc3)noc2C)c1
    -11%	-17%
COc1cc2[nH]c(=O)n(-c3ccc(C)cc3)c(=O)c2cc1OC
    -13%&-13%	1%&-7%
CN(C)c1nc(OCCNC(=O)Nc2ccccc2)nc(N2CCCCC2)n1
    -7%	-5%
O=C(NCc1ccccc1)c1cccc(NC(=O)c2ccccc2)c1
    -2%	?
c1ccc(-c2nnc3ccc(N4CCCC4)nn23)cc1
    -27%	?
CN1CCN(C(=O)c2ccccc2Nc2ccc(SC(F)F)cc2)CC1
    ?	-24%
Cc1sc2ncn(CC(=O)NCCCC(=O)N3CCCCC3)c(=O)c2c1C
    -13%	10%
Cc1ccccc1C(=O)Nc1ccc(S(=O)(=O)Nc2onc(C)c2C)cc1
    -6%	-4%
Cc1nc(S/C(=C\c2ccc(OCc3ccccc3Cl)cc2)C(=O)O)n[nH]1
    .	10%
COc1ccccc1-c1cc(NC(C)=O)c2ncc(-c3cccc(C(F)(F)F)c3)n2c1
    0%	-9%
CC(=O)c1ccc(NC(=S)N2CCCC2)cc1
    -16%	-4%
COc1cccc(CC(=O)NCc2ccc3c(c2)CCN3C(C)=O)c1
    -10%	-8%
COc1c2c(nc3occc13)C(CC=C(C)C)(OC)C(=O)C=C2 (stereo not drawn)
    i	-7%
CC(C)n1c(C(O)c2ccc3c(c2)OCO3)nc2ccccc21 (stereo not drawn)
    -21%	-11%
COc1ccccc1Cn1ccn(Cc2ccc(C)cc2)c(=O)c1=O
    10%	4%
CCOc1ccc(C(C)NC(=O)C2CCCC2)cc1 (stereo not drawn)
    0%	-14%
CC(C)C1N(C(=O)CN2CCCCC2)CCN1S(=O)(=O)c1ccccc1 (stereo not drawn)
    i	1%
CCCCC(=O)Nc1cccc(OCc2cc(=O)n3ccccc3n2)c1
    -28%	-14%
COC(=O)C(C)Sc1nc2c(c(=O)[nH]c(=O)n2C)n1CCC(C)C (stereo not drawn)
    .	-16%
CC(C)CCOc1ccc(C(=O)N2CCCC2C(=O)O)cc1 (stereo not drawn)
    4%	-7%
Cc1noc(C)c1CSCC(=O)OCc1nc2ccccc2c(=O)n1CC#N
    -10%	-1%
CCc1nc2ccc(C(=O)Nc3cccc(OCC(=O)N(C)C)c3)cn2c1N(CCC(C)C)CCN(C)C
    i	-12%
CCC(C)[C@H](NC(=O)OC(C)(C)C)c1nnc(SCc2c(C)[nH]c(=O)[nH]c2=O)o1 (stereo partly drawn)
    .	-7%
CCCCNC(=O)C(NC(=O)c1ccc(C)cc1)C(=O)c1ccccc1 (stereo not drawn)
    -10%	-6%
CCOc1ccc(NC2=NCC(=O)N2Cc2cccs2)cc1
    -28%[1.46 µM]	-9%
CC(NC(=O)C1CCCN1S(=O)(=O)c1ccc2c(c1)n(C)c(=O)c(=O)n2C)c1ccccc1 (stereo not drawn)
    -11%	-11%
O=c1cc(C(F)(F)F)[nH]c2ccc(OC(F)(F)F)cc12
    ?	?
O=C(CCCCCn1c(=S)[nH]c2cc3c(cc2c1=O)OCO3)N1CCN(c2ccccc2)CC1
    i[7.34 µM]	0%[7.34 µM]
Cc1ccccc1NC(=O)OCc1cccnc1Sc1ccc(Cl)cc1
    .	?
Clc1ccc(SCc2cc(-c3ccccc3)on2)cc1
    .	?
CSc1nnc(-c2cc[n+](C)cc2)n1CCO
    i	-17%
COc1ccc(C2=NS(=O)(=O)N(C)C(C(=O)NC(C)c3ccccc3)=C2)cc1OC (stereo not drawn)
    -11%&-9%	-6%&-10%
O=C(NCc1ccccc1)c1ccc2c(c1)N(Cc1ccc(F)cc1)CCS2
    -3%	-8%
Cc1cccc(C(=O)NCCCN2CCCC2=O)c1
    -22%	-22%
Nc1ccc(OCc2ccccc2)cc1[N+](=O)[O-]
    -20%	-6%
CCN(CC)S(=O)(=O)c1cc(NC(=O)CCNC(=O)c2ccccc2Cl)ccc1C
    -24%	-15%
Cc1nn(S(=O)(=O)c2ccc(F)cc2)c(C)c1S(=O)(=O)N1CCCCC1
    -15%&2%	-9%&-8%
COc1cc(C2c3c(-c4ccccc4O)n[nH]c3C(=O)N2Cc2ccco2)ccc1OCC(C)C (stereo not drawn)
    ?	?
O=C(Nc1cccc(C(F)(F)F)c1)C1CCCN1S(=O)(=O)c1cccc2nsnc12 (stereo not drawn)
    ?	-29%
CCCCC[C@@H](/C=C/C=C\CCCCCCCC(=O)O)OO
    -19%[0.293 µM]	-11%[0.293 µM]
O=C(Nc1ccccc1N1CCOCC1)C1CCN(S(=O)(=O)c2ccccc2F)CC1
    i	-7%
COc1cccc(C(=O)NC2CC3CCCC(C2)N3Cc2ccc(F)cc2)c1 (stereo not drawn)
    i	-11%
O=C(CN1C(=O)C2CCCCC2C1=O)OCc1nnc(-c2ccccc2)o1 (stereo not drawn)
    7%	-4%
COc1cccc2c(=O)c3cccc(N)c3[nH]c12
    -8%	-6%
COc1cc(CCC(=O)OCC(=O)NC2CCCC(C)C2C)cc(OC)c1OC (stereo not drawn)
    i	-5%
COc1ccc(C2CC(=O)C(CS(=O)(=O)c3ccccc3)C(=O)C2)cc1 (stereo not drawn)
    9%	6%
CCN1CCN(CC(=O)N2N=C(c3ccc(OC)cc3)CC2c2ccc(OC)cc2)C(=O)C1=O (stereo not drawn)
    -5%	1%

Further records:
The line under a structure holds: VACV mCherry inh	Vaccinia Venus
CCOC(=O)C(C)Oc1cccc2c(=O)n(CC(=O)NCCc3ccc(OC)c(OC)c3)ccc12 (stereo not drawn)
    -3%	-10%
c1ccc(CN2CCN(CCOCCOc3ccc4c(c3)CCC4)CC2)cc1
    -16%	-18%
CCN=c1scc(-c2ccccc2)n1/N=C/c1ccccn1
    5.6µM*	5%
CN(Cc1c(F)cccc1Cl)C(=O)CNC(=O)c1ccc2c(c1)OCO2
    i	-10%
CCC(=O)N1CCc2cc(Br)cc(S(=O)(=O)CCC(=O)NCc3ccccc3)c21
    -9%	-6%
O=C(Nc1ccc(Br)cn1)c1coc(=O)c(Br)c1
    -5%[7.34 µM]	-5%[7.34 µM]
Cn1c(=O)c2c(nc(N3CCOCC3)n2C/C=C/c2ccccc2)n(C)c1=O
    i	-23%
O=C(NCc1ccccc1)c1ccc2nc(CCc3ccccc3)oc2c1
    -12%	-8%
O=C(NCC1CCCCC1)c1[nH]c(C(F)(F)F)nc1-c1ccccc1
    8%	-15%
COC(=O)c1ccccc1NC(=O)CSc1[nH]c(=O)cc(C)c1C#N
    i	-6%
CC(c1ccccc1)C1NC(C(=O)O)CS1 (stereo not drawn)
    .	-13%
CCOc1ccc(CCNC(=O)COC(=O)c2cccnc2SC)cc1OCC
    -13%	-1%
CCc1ccc(C(C#N)=CC=Cc2ccccc2)cc1
    ?	?
Cc1c2cnn(-c3ccccc3)c(=O)c2c(C)n1CC(=O)N1CCN(c2cccc(Cl)c2)CC1
    -17%	0%
Brc1ccc(OCCCCCN2CCOCC2)cc1
    -14%	-2%
COc1ccc(COn2nnc3ccc(S(=O)(=O)N4CCOCC4)cc32)cc1F
    ?	?
COc1ccc(OC)c(NC(=O)c2ccc3nc(C(C)C)oc3c2)c1
    -10%	-5%
CC1CCN(Cc2nnnn2CCCC(=O)NCCN2CCOCC2)CC1
    i	-11%
CCOc1ccc(Br)c(C2(O)CC(C)N(C)CC2C)c1 (stereo not drawn)
    .	?
O=C(COC(=O)c1ccc(Cl)nc1)Nc1cc(S(=O)(=O)N2CCOCC2)ccc1Cl
    -9%	-13%
COc1cc(C=C2C(=O)NC(=O)NC2=O)ccc1OCc1ccc([N+](=O)[O-])cc1
    -9%	-1%
Brc1ccccc1-n1nnc(-c2cccnc2)n1
    -19%	-9%
COc1cccc(CN(C)S(=O)(=O)c2ccc3c(c2)OCCO3)c1
    -3%	-17%
CC(C)[C@@H](C(=O)NCC1CCCO1)N1C(=O)N2CCc3c([nH]c4ccccc34)[C@@]2(C)C1=O (stereo partly drawn)
    2%	-3%
CCN(CC(=O)N1CCN(Cc2ccccc2)CC1)S(=O)(=O)c1ccc(C)cc1
    i	-15%
COc1ccc(OC)c(N(CCN2C(=O)c3ccccc3C2=O)C(=O)C2CCC(=O)C2C)c1 (stereo not drawn)
    i	-10%
N/C(Cc1ccc(Cl)cc1Cl)=N\OC(=O)Cc1cccs1
    -9%	-8%
O=C(NCCCO)C(=O)Nc1ccc2c(c1)N(S(=O)(=O)c1cccs1)CCC2
    -29%	?
COc1ccc(-c2nnc(SCC(=O)N3CCc4ccccc43)o2)cc1OC
    -13%	3%
Cc1ccc(C)c(NC(=O)c2ccc[n+](Cc3ccc([N+](=O)[O-])cc3)c2)c1
    .	8%
CC(C)c1nc(Cl)c(C#N)c2c1CSC(C)(C)C2
    i	-2%
O=C(Nc1ccc(N2CCCC2)c(S(=O)(=O)Nc2cccc(C(F)(F)F)c2)c1)c1cccs1
    ?	?
